Screening results: PubChem, National Center for Advancing Translational Sciences (NCATS)
2A Renilla: FMDV 2A StopGo reporter, Renilla signal. HEK cells with a luciferase reporter of 2A StopGo recoding. Potency, µM (series often up to 57.5 µM), for the others: top-dose signal change, negative = less light. 0.32% of 120,000 active; active means well fitted falling curve with a large enough effect; inconclusive means small, poorly fitted or top-dose-only effect; inactive means no such curve, though single readings can be large or run the other way; note: nearly all actives have a fitted effect of over 55% in size; overnight with compound
2A firefly: lowers the firefly signal of an FMDV 2A StopGo reporter; 0.23% of 120,000 active; AID 1745856; Potency, µM (top dose mostly 57.5 µM), for the others: top-dose signal change, negative = less light; HEK cells with a luciferase reporter of 2A StopGo recoding; active = well fitted falling curve with a large enough effect; inconclusive = small, poorly fitted or top-dose-only effect; inactive = no such curve, though single readings can be large or run the other way; note: nearly all actives have a fitted effect of over 60% in size; overnight with compound
* marks the source's active call; other numbers are inactive results; u = inconclusive; [ ] = another dose, or the depositor's remark. % is set by controls: 0 for no effect and ±100 for the full control effect; potency is the fitted concentration of half-maximal effect.

SMILES	2A Renilla	2A firefly
CCOc1cc(/C=C/c2ccc3cccc(OC(C)=O)c3n2)ccc1OC(C)=O	2%	264%[activator]
Cn1c(=O)n(Cc2ccccc2F)c(=O)c2c1ncn2Cc1ccccc1	5%	11%
O=C(CCn1cccn1)NCc1ccc(Cl)cc1	-10%	-11%
Cc1ccccc1NC(=O)Cn1nc2c(cc1=O)CC(C)CC2 (stereo not given)	-9%	7%
Cc1oc2cc(OCC(=O)N[C@H](C)C(=O)O)ccc2c(=O)c1-c1ccc(Cl)cc1	5%	6%
CCN(CC)CCNc1nc2c(c(=O)n(C)c(=O)n2C)n1CC(O)COc1ccccc1C (stereo not given)	-17%	-17%
COc1ccc(C(=O)Oc2c(C)cc(C(O)(C(F)(F)F)C(F)(F)F)cc2C)cc1	8.9µM*	10µM*
O=C(Nc1ccccc1)C1CCCN1c1ncnc2ccccc12 (stereo not given)	u	u
CC(=O)c1ccc(C(=O)N(Cc2cccnc2)c2nc3c(Cl)cccc3s2)cc1	-15%	14%
Cc1cc(C)n2nc(SCC(=O)c3cc(C)n(C(C)C)c3C)nc2n1	6%	22%
COc1ccc(O)c(C(=O)c2cc(C#N)c(=O)n(-c3cc(C)c(Cl)cc3OC)c2)c1	4%	40%[activator]
O=C(CSc1nc2cc(Cl)ccc2o1)c1c[nH]c2ccccc12	-2%	13%
CCCn1nc(C(=O)NC2CCCCCC2)c2ccccc2c1=O	19%	8%
c1ccc(-c2ccn[nH]2)cc1	-5%	0%
O=C(Cn1c(=O)n(-c2ccccc2)c(=O)c2sc3ccccc3c21)NC1CCCC1	-4%	-19%
O=C(NCCCN1CCN(c2ccc(F)cc2)CC1)c1cc2c(s1)-c1ccccc1OC2	0%	4%
COc1cccc(C(=O)OC(C)C(=O)C23CC4CC(CC(C4)C2)C3)c1OC (stereo not given)	0%	0%
CN(c1nnc(NC(=O)Nc2ccccc2C(F)(F)F)s1)C1CCCCC1	-2%	64%[activator]
COc1ccc(OCC(=O)Nc2ccc(-c3nc4ccccc4o3)cc2)cc1	1%	100%[activator]
COCCn1c(SCc2ccccc2F)nnc1-c1ccccc1	49%[activator]	0%

Quoted at random: 4 entries already listed, in no set order.
SMILES	2A Renilla	2A firefly
c1ccc(-c2ccn[nH]2)cc1	-5%	0%
O=C(NCCCN1CCN(c2ccc(F)cc2)CC1)c1cc2c(s1)-c1ccccc1OC2	0%	4%
O=C(CSc1nc2cc(Cl)ccc2o1)c1c[nH]c2ccccc12	-2%	13%
COCCn1c(SCc2ccccc2F)nnc1-c1ccccc1	49%[activator]	0%

Additional compounds:
SMILES	2A Renilla	2A firefly
CCCNC(=O)c1cnc2sc(N3CCCCCC3)nn2c1=O	-8%	36%[activator]
COc1ccc(OC)c(NC(=O)COC(=O)CCS(=O)(=O)c2ccc(Cl)cc2)c1	-7%	-1%
COc1cc(C#N)cc(Br)c1OCc1ccccc1	15%	0%
CC1Cc2ccccc2N1C(=O)CCc1ncc(-c2c(F)cccc2F)o1 (stereo not given)	29%	45%[activator]
COc1ccc(-c2cc(C(F)(F)F)nc(SCC(=O)N(C)Cc3ccccc3)n2)cc1OC	33%[activator]	1%
CN[C@H]1C[C@H]2c3[nH]c4cccc(-c5cccc(F)c5)c4c3CCN2C(=O)[C@H]1[C@H](C)O	-3%	-4%
Cc1ccccc1CCNC(=O)Cn1ncc2ccccc2c1=O	-11%	8%
CCn1cc(S(=O)(=O)Nc2ccc(F)c(F)c2)cn1	123%[activator]	2%
CCN(CC)c1ccc(NC(=O)c2ccc3nc[nH]c3c2)cc1	49%[activator]	247%[activator]
CC1=C(C(=O)NCc2ccccc2Cl)C2(CCCCCC2)OC1=O	7%	-8%

Continued; the last five above are carried over.
SMILES	2A Renilla	2A firefly
CN[C@H]1C[C@H]2c3[nH]c4cccc(-c5cccc(F)c5)c4c3CCN2C(=O)[C@H]1[C@H](C)O	-3%	-4%
Cc1ccccc1CCNC(=O)Cn1ncc2ccccc2c1=O	-11%	8%
CCn1cc(S(=O)(=O)Nc2ccc(F)c(F)c2)cn1	123%[activator]	2%
CCN(CC)c1ccc(NC(=O)c2ccc3nc[nH]c3c2)cc1	49%[activator]	247%[activator]
CC1=C(C(=O)NCc2ccccc2Cl)C2(CCCCCC2)OC1=O	7%	-8%
OC12CC3CC(C1)CC(NCc1ccc(-c4ccccc4)cc1)(C3)C2	0%	235%[activator]
O=C(Nc1nc(-c2cccc3ccccc23)cs1)c1ccccn1	-4%	21%
O=C(O)C(c1c[nH]c2ccc(Cl)cc12)N1CCN(c2cccc(Cl)c2)CC1 (stereo not given)	-3%	-5%
O=C(c1ccco1)N1CCN(/C=C/C(=O)C(F)(F)F)CC1	3%	2%
CCOc1ccc(CCNC(=O)CN2N=C(c3ccccc3)CCC2=O)cc1OCC	-12%	-21%
Cc1cccc(CSc2nc3c(c(=O)[nH]2)C(c2cccc(O)c2)CC(=O)N3)c1 (stereo not given)	3%	20%
O=C(NCCc1ccccc1F)NC1CC1	-2%	0%
CCn1c(SCC(=O)Nc2ccc(Cl)cn2)nc2ccccc21	32%[activator]	35%[activator]
O=C(NCCc1ccccc1)c1cc(-c2ccncc2)nc2ccccc12	24%	0%
CCOc1ccc(CCNC(=O)c2cnc3c(-c4ccccc4)c(C)nn3c2C)cc1OCC	5%	0%
Cn1nc(C(=O)NN2C(=O)NC(c3ccccc3)(c3ccccc3)C2=O)c2ccccc2c1=O	6%	3%
Fc1ccc(-c2cc(-c3ccccc3)c3c(n2)-c2ccccc2OC3)cc1	-1%	2%
O=S(=O)(c1ccc(Cl)cc1)N1CCN(c2nc(-c3cccs3)nc3ccccc23)CC1	4%	18%
O=C(NCc1nnc2n1CCCCC2)c1nn(Cc2ccccc2)c(=O)c2ccccc12	1%	10%
COc1cc(NC(=O)Cn2nnnc2-c2ccccc2F)cc(OC)c1OC	-6%	-20%
O=c1cc(CSc2ncn[nH]2)[nH]c2c(Cl)cccc12	-1%	-7%
Cc1cc2oc(C(=O)Nc3ccc(F)cc3)cc(=O)c2cc1C	-8%	4%
COc1ccc(CNc2nc(-c3ccc(Cl)cc3)nn2S(=O)(=O)c2ccc(C)cc2)cc1	-1%	0%
CC1(C)CC(NC(=O)C2CCC(CNC(=O)CNC(=O)c3ccccc3)CC2)CC(C)(C)N1 (stereo not given)	7%	0%
CCc1ccc(OCCSc2nc3ccccc3n2CC(=O)N2CCCCC2)cc1	-10%	-15%
CCCCNC(=O)Cc1n[nH]c(=O)c2ccccc12	-10%	-7%
COc1ccccc1NC(=O)CSc1nnc(CN2CCCCC2)n1-c1ccc(F)cc1	-2%	-8%
O=C(NC1CCCc2ccccc21)C1CC=CCC1 (stereo not given)	47%[activator]	3%
N#CC1(C#N)CC2(O)NC(=O)C1(C#N)C(c1ccccc1)C2Br (stereo not given)	-11%	-5%
O=C(Nc1ccccc1Br)c1cc(-c2cccnc2)nc2ccccc12	22%	0%
O=C(C1CC1)N1CCN(c2nc(-c3ccccc3)c3ccccc3n2)CC1	-13%	-6%
COc1ccc(NC(=O)CCNS(=O)(=O)c2ccc3c(c2)CCN3C(=O)C2CC2)cc1Cl	0%	12%
Cc1cccc(NC(=O)c2cc3c(C)nn(-c4ccccc4)c3s2)c1	-17%	-11%
O=C(CN1Cc2ccccc2C1=O)Nc1cc(F)ccc1F	49%[activator]	23%
COC(=O)c1cc(Br)cc(Br)c1O	-6%	-13%
O=S(=O)(Nc1nc2ccccc2nc1NCc1ccccc1Cl)c1ccc(F)cc1	59%[activator]	u
CCCCn1nc(C(=O)Oc2ccc(C(C)=O)cc2)c2ccccc2c1=O	14%	22%
CCN(CC)CCNc1nc2c(c(=O)[nH]c(=O)n2C)n1CC(O)COc1ccc(Cl)cc1Cl (stereo not given)	-12%	-16%
COc1nc2ccccc2nc1N1CCC(C(=O)Nc2ccccc2F)CC1	-1%	2%
Cc1cc(C)cc(NC(=O)COc2ccc3c(C)cc(=O)oc3c2)c1	20%	6%
COC(=O)c1c2c(c3ccccc3c1-c1ccccc1)OC(c1ccc(OC)cc1)(c1ccc(OC)cc1)C=C2	9%	18%
CN(CC(=O)Nc1ccc(F)cc1)C(=O)COC(=O)Cc1n[nH]c(=O)c2ccccc12	-17%	-10%
COc1ccc(S(=O)(=O)c2cn(C)c3cc(N4CCCCC4)c(F)cc3c2=O)cc1	10%	-3%
CCCCNS(=O)(=O)/C=C/c1ccc(F)cc1CNC(=O)OC(C)(C)C	115%[activator]	-23%
CCOc1ccc(NC(=O)c2cc(=O)c3cc(C)ccc3o2)cc1	-9%	0%
CCOc1ccc2oc(C(=O)N3CCN(CC(=O)Nc4ccc(C)cc4)CC3)c(C)c2c1	-2%	5%
CC(=O)Nc1ccc(NC(=O)C(NS(=O)(=O)c2ccc(Br)s2)c2ccccc2)cc1 (stereo not given)	7%	15%
Cn1nc(-c2ccc(Cl)cc2)c2cc(C(=O)Oc3ccccc3Cl)sc21	-4%	-9%
CC(C)c1ccc(/C=N/NC(=O)C2CC2c2ccccc2)cc1 (stereo not given)	6%	8%
COc1ccc(Nc2cc(C(=O)NCc3ccccc3)c3ccccc3n2)cc1OC	-16%	-8%
COc1ccc(-n2nnc(C(=O)Nc3ccccc3F)c2N)cc1	9%	295%[activator]
CCCOc1ccc(/C(O)=C2\C(=O)C(=O)NC2c2ccc(Cl)cc2)cc1 (stereo not given)	3%	12%
CSc1ccc(/C=C(/C#N)S(=O)(=O)c2ccc(C)cc2)cc1	-17%	-1%
O=C(Nc1ccc(Cl)c(Cl)c1)c1ccc(-c2ccccc2)cc1	5%	0%
CC(=O)N(CC(O)CN(C(C)=O)c1c(I)c(C(=O)NCC(O)CO)c(I)c(C(=O)NCC(O)CO)c1I)c1c(I)c(C(=O)NCC(O)CO)c(I)c(C(=O)NCC(O)CO)c1I (stereo not given)	-4%	-9%
(continued)
SMILES	2A Renilla	2A firefly
COc1ccc2c(CNCc3cccs3)c(C(=O)O)n(Cc3ccccc3)c2c1	84%[activator]	-14%
CCCCCCCCCCCCCCCCN1CCCC1	-6%	-8%
Cc1nc(N2CCCC2)ncc1C(=O)NCc1ccccc1Cl	44%[activator]	7%
COc1ccc(-c2nn(-c3ccc(C)cc3)c3c2cnc2ccc(C)cc23)cc1OC	-3%	1%
CN(C(=O)c1ccc2c(c1)N(Cc1ccccc1F)C(=O)c1ccccc1S2)C1CCCCC1	22%	-28%
Cc1ccc(-n2c(=O)c3ccc(C(=O)NCc4ccccc4Cl)cc3n(CC(N)=O)c2=O)cc1	-3%	-3%
CC(=O)NCCNC(=O)CCc1nc(-c2ccccc2)c(-c2ccccc2)o1	-9%	-1%
O=C(NCC(c1ccco1)S(=O)(=O)c1ccccc1)c1ccc2c(c1)OCO2 (stereo not given)	88%[activator]	114%[activator]
O=c1[nH]c2ccc(Cl)cc2c(-c2ccccc2)c1CN1CCCCC1	-3%	2%
N#Cc1ccc(Cn2c(=O)c3c(ncn3C3CCCC3)n(Cc3ccccc3)c2=O)cc1	4%	25%

Grouped by structure: those above with a cyano group
SMILES	2A Renilla	2A firefly
COc1ccc(O)c(C(=O)c2cc(C#N)c(=O)n(-c3cc(C)c(Cl)cc3OC)c2)c1	4%	40%[activator]
COc1cc(C#N)cc(Br)c1OCc1ccccc1	15%	0%
N#CC1(C#N)CC2(O)NC(=O)C1(C#N)C(c1ccccc1)C2Br (stereo not given)	-11%	-5%
CSc1ccc(/C=C(/C#N)S(=O)(=O)c2ccc(C)cc2)cc1	-17%	-1%
N#Cc1ccc(Cn2c(=O)c3c(ncn3C3CCCC3)n(Cc3ccccc3)c2=O)cc1	4%	25%

(list continues)
SMILES	2A Renilla	2A firefly
N#Cc1c(-n2ncnc2-c2cccc(Br)c2)sc2c1CCCCC2	-2%	2%
CCOc1ccc(CC(=O)Nc2c(C(=O)Nc3ccc(OC)cc3OC)oc3ccccc23)cc1	-9%	-9%
CCOc1c(OC)cccc1-c1nc2ccccc2s1	4%	0%
CCCCCCCCSCCCCC(=O)O	2%	1%
Nc1ccc(Cl)cc1N	-13%[114 µM]	131%[activator][22.9 µM]
COc1ccc2c(c1)NC(c1ccc(F)cc1)=NC(c1ccc(F)cc1)=N2	3%	36%[activator]
CCOC(=O)C1CCCN(C(=O)Cn2ncc3c(C)n(Cc4ccc(Cl)cc4)c(C)c3c2=O)C1 (stereo not given)	0%	-15%
CC(=O)N1CCCc2cc(S(=O)(=O)N3CCCC(C(=O)NCc4ccc(C)cc4)C3)ccc21 (stereo not given)	-24%	-31%
COc1ccc(CCNC(=O)CCCCn2c(=O)c3ccccc3n(Cc3ccccc3)c2=O)cc1OC	-7%	-17%
COc1ccc(NC(=O)c2cn3c4c(ccc(Cl)c4c2=O)OC(C)C3)cc1OC (stereo not given)	-8%	5%
Fc1ccc(NCc2nnc3n2CCCCC3)cc1Cl	0%	18%
Cc1ccc(C)c(Cn2c(=O)n(-c3ccc(Cl)cc3)c(=O)c3c(C)c(C)sc32)c1	-9%	-15%
CCCCCCc1cc2c(-c3ccccc3)cc(=O)oc2cc1O	-3%	-15%
O=S(=O)(/N=C/c1cccs1)c1ccc(Cl)cc1	-6%	3%
CCOc1ccccc1NC(=O)CSc1cc(=O)n(CC)c2ccccc12	48%[activator]	-11%
O=c1oc2c3c(ccc2c2ccccc12)OCN(Cc1ccccc1Cl)C3	5%	15%
O=S(=O)(NCCc1csc2nc(-c3ccccc3)nn12)c1ccc(Cl)s1	186%[activator]	30%
Cc1ccc(CNC(=O)c2cc(S(=O)(=O)N3CCCCCC3)cn2C)cc1	44%[activator]	-16%
CSCc1ccc(C(=O)NCc2ccccc2)o1	12%	42%[activator]
O=C(NCCc1cccnc1)c1ccc(C(F)(F)F)cc1	13%	152%[activator]
Oc1ccc(Cl)cc1C=Nc1ccccc1C(F)(F)F	-8%	22%
N#CCCNC(=O)CSc1nc(C2CC2)nc2ccccc12	-24%	-11%
